# gsp ag: agonists of gsp mutant (McCune-Albright syndrome). gsp mutant cells, cAMP HTRF, 30 min; control for the full effect not named in the record. Potency, µM (series often up to 76.9 µM), inactives show at the top dose activation (cAMP increase), hits mostly activators. actives 0.13% (n = 340,000); active = well fitted activation curve with a large enough effect; inconclusive = small, poorly fitted or top-dose-only effect, or another doubt; inactive = no such curve, though single readings can be large or run the other way; cell line not stated here;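 note: phosphodiesterase inhibitor Ro 20-1724 added with compounds to block cAMP breakdown; potency is the fitted concentration of half-maximal effect; nearly all actives have a fitted effect of over 60% in size; about a fifth of the inactives were tested at one dose only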
#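 Cells stably selected in G418 were plated at 2000/well, grown 16-24 hr, then given compounds in DMSO with the PDE inhibitor […] (300 uM solution added) for 30 min at 37C; cAMP was read by HTRF.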
# gsp antagonist: antagonizes gsp, the McCune-Albright syndrome mutation. gsp-mutant cells, cAMP HTRF, 30 min; control for the full effect not named in the record. Potency, µM (doses to about 76.9 µM), for inactives: top-dose activity change, negative = inhibition, most hits filed as inhibitors. actives 0.4% (n = 340,000). AID 624288; active = falling curve of any shape with a large fitted effect; inconclusive = falling curve, mostly with a smaller effect; inactive = flat or rising curve; cell line not stated here;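 note: intracellular cAMP measured with PDE inhibitor Ro 20-1724 present during compound exposure; potency is the fitted concentration of half-maximal effect; % is set by controls: 0 for no effect and ±100 for the full control effect; nearly all actives have a fitted effect of over 65% in size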
#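 Measurement of cellular cAMP by homogeneous time-resolved fluorescence following a 30 min compound exposure at 37C. The PDE inhibitor […] was present throughout; the assay buffer was DPBS with 0.05% BSA and 0.005% Tween 20.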
# TRPV1 PAM: human TRPV1 potentiation | TRPV1-expressing cells, Fluo-8 calcium influx, capsaicin EC20 potentiation; host cell line not named in the record; control for the full effect not named in the record | Q8NER1 | potentiation, % at 8.33 µM | actives 0.02% (n = 320,000); active means potentiation above 80%; inconclusive means 30% to 80%; inactive means below 30%; note: 0% is about no effect
#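 Fluo-8 calcium influx in TRPV1-expressing cells, kinetic read (ex 480/em 520 nm). Compound added and read 3 min for agonist activity, followed by capsaicin at EC20 final and 2 min further read for enhancement.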
# Sfp PPTase inh: blocks B. subtilis Sfp PPTase activity | actives 3.5% (n = 310,000) | Potency, µM, without a hit: max response, negative = inhibition, usual class: inhibitors | Biochemical Sfp PPTase activity, qHTS; active = well fitted inhibition curve with a large enough effect; inconclusive = small, poorly fitted or top-dose-only effect, or another doubt; inactive = no such curve, though single readings can be large or run the other way;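 note: the enzyme is Sfp with the accession as filed and its product quenches rhodamine fluorescence; potency is the fitted concentration of half-maximal effect; 0% = enzyme reaction without inhibitor and -100% = no enzyme wells; top concentration of the series not given in the record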
#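 Fluorescence-quenching assay with 15 nM Sfp, 5 uM rhodamine-CoA and 12.5 uM BHQ-2-labelled ybbR peptide in pH 7.6 Hepes/MgCl2 buffer. Enzyme was pre-incubated with compound for 15 min at room temperature. Rate was taken from the 30-min fluorescence change (525/598 nm).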
# Menin MLL FP FL: inhibitors of human menin-MLL interaction, wild-type MLL peptide. FP activity change, % at 61.4 µM. AID 1766. Fluorescence polarization, fluorescein-MLL peptide displacement from menin. 290,000 tested, under 10 active; inconclusive = falling polarisation curve, or a change in total fluorescence; inactive = total fluorescence flat and polarisation flat or rising; no compound was filed as active; the % refers to the polarisation; negative = inhibition;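 note: % of control where 0% means no effect; inhibitors lower the polarisation; unlabelled MLL peptide was the positive control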
# ClpP mod: qHTS Assay for Activators of ClpP; ATP-dependent Clp protease proteolytic subunit (Bacillus subtilis (strain 168)), P80244; Potency, µM (titrated, usually from 57.5 µM), without a hit: at the highest dose activity change, negative = active; actives 1.9% (n = 340,000); AID 651965, 2013; purified B. subtilis ClpP, FRET peptide cleavage, 20 min; active = well fitted falling curve with a large enough effect; inconclusive = small, poorly fitted or top-dose-only effect; inactive = no such curve, though single readings can be large or run the other way; note: potency is the fitted concentration of half-maximal effect; the source files actives as falling curves though it sought activators and does not explain the sign; nearly all actives have a fitted effect of over 65% in size; many hits overshoot -100%
# Target sequence (P80244 whole entry, looked up): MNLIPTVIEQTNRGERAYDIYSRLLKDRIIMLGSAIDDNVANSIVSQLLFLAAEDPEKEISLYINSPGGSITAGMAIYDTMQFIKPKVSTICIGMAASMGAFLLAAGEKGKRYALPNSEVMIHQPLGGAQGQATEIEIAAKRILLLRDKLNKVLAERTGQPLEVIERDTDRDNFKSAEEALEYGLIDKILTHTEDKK
#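 Buffer: 100 mM Tris/HCl pH8, 100 mM KCl, 0.05% low protease BSA, 2.5% glycerol, 0.01% Tween-20. ClpP 10 microg/mL final; 20 min RT; delta FRET normalized to ADEP and DMSO controls.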
# TRPML1 blocker: blocks the human TRPML1 channel; AID 624415; actives 0.02% (n = 390,000); activity change, negative = inhibition, % (no concentration beside the values); Q9GZU1; TRPML1-inducible cells, Ca2+ dye fluorescence, FDSS; stronger effect = lower value; inhibition of EC80 agonist-evoked calcium signal; in the data active means activity change below about -50%; inconclusive means about -30% to -50%; inactive means above about -30%;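 note: stimulus is agonist 54-4 at its EC80 concentration; % is set by controls: 0 for no effect and ±100 for the full control effect; compound concentration not given in the record; the text of the record puts the active cut at -80%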
# Target sequence (Q9GZU1 whole entry, looked up): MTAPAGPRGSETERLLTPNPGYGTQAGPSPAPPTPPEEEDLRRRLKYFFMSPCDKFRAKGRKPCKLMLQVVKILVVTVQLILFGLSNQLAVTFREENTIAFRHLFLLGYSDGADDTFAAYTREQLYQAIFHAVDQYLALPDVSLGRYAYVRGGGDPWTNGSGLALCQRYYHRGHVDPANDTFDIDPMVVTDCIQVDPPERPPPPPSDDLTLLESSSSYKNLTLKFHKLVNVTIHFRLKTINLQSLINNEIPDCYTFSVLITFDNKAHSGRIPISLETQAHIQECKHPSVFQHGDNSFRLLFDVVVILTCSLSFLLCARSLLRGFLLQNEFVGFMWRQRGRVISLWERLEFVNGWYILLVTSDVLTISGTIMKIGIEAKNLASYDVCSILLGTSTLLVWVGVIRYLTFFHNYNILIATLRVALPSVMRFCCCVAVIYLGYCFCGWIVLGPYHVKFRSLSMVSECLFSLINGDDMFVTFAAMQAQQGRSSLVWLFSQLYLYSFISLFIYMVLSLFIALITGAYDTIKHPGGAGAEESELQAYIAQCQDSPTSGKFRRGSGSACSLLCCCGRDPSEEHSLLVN
#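 Calcium fluorescence in TRPML1-DL cells induced overnight with Tet: a 110 s read after compound pin addition, then a 110 s antagonist read after challenge with 54-4 at 4 uM final (EC80).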
# The depositor's hits bear a star; ? = inconclusive; nt = no result given; & = joins results of further samples; [ ] = dose if it differs, or a comment.
SMILES,gsp ag,gsp antagonist,TRPV1 PAM,Sfp PPTase inh,Menin MLL FP FL,ClpP mod,TRPML1 blocker
COC(=O)CCC(C)C1CCC2C3CCC4CC(O)CCC4(C)C3=CC(=O)C12C (configuration not stated),2%[15.4 µM],?,nt,nt,nt,2.3%,21
COc1ccccc1N1CCN(C(=O)CCN2C(=O)c3cccc4cccc(c34)C2=O)CC1,-3%[15.4 µM],?,0,-10%,5.7,nt,-4
CC1CCCCC12NC(=O)N(CC(=O)Nc1cccnc1Cl)C2=O (configuration not stated),-5%[15.4 µM],14%,-10,7%,nt,nt,10
CC(C)CN(C(=O)CN(C)S(=O)(=O)c1ccc(Cl)cc1)C1CCS(=O)(=O)C1 (configuration not stated),12%,-13%,5,10%,2.4,0.3%,-2
CCCNc1nc2c(c(=O)[nH]c(=O)n2C)n1CCc1ccccc1,?,2%,4,11%,-0.1,-0.2%,0
Nn1c(SCC(=O)Nc2ccc3c(c2)OCO3)nnc1C1CC1,-12%,10%,-13,4%,-0.2,0.7%,-2
O=C(COC(=O)c1cc(-c2ccc(Cl)s2)nc2ccccc12)NCc1ccco1,?,-13%,-13,13µM*,1.2,-3.3%,8
CCc1cc(/C(Cc2ccccn2)=N\O)c(O)cc1O,13%,35µM*,?,15%,-2.5,-5.5%,1
CC(=O)c1cc2c(ccc3ccccc32)oc1=O,16%[15.4 µM],-20%,6,1%,-0.2,-1.5%,21
O=c1[nH]c(COc2ccc(Br)cc2Cl)nc2ccccc12,?,-4%,2,6%,nt,-0.4%,10
COC(=O)[C@@H]1CC[C@H](C)[C@@H](c2ccc(C)cc2)N1C(=O)c1ccc(/C=N/O[C@H](C)c2cn([C@@H]3COC[C@H]3O)nn2)cc1,nt,nt,-4,-17%,5.4,nt,nt
COc1ccccc1C(=O)Nc1nnc(-c2ccccc2)s1,-11%,-2%,9,-12%,-1.6,?,nt
COC(C[C@@H]1O[C@@H]1[C@@H](O)COCc1ccccc1)OC,-5%,14%,?,11%,-1.1,1.3%,6
Cc1ccc(S(=O)(=O)N2CCCc3ccccc32)cc1C,5%[15.4 µM],-5%,?,-6%,-0.9,-1.7%,20
N=c1n(Cc2ccccc2)c2ccccc2n1CC(O)COc1ccccc1 (configuration not stated),-45%[inhibitor],10%,4,-3%,-1.4,1.7%,-3
Cn1c(=O)c2ncn(CC(=O)N=Nc3c(O)[nH]c4ccccc34)c2n(C)c1=O,nt,nt,-8,-10%,-1.6,nt,nt
Cc1cccc(NC(=O)CN2C(=O)/C(=C3\SC(=S)N(CC4CCCO4)C3=O)c3ccccc32)c1 (configuration not stated),1%,-4%,6,-1%,2.7,-5.9%,11
O=C(NCc1cccnc1)c1cc(S(=O)(=O)N2CCOCC2)c(Cl)cc1Cl,3%[15.4 µM],7%,9,nt,nt,nt,-3
CC(C)C(c1nnnn1Cc1cccs1)N1CCN(c2ccccc2)CC1 (configuration not stated),6%,4%,-7,7%,0.0,-0.5%,22
COc1cc(NC(=O)c2cc3ccccc3o2)c(OC)cc1Br,?,?,?,-14%,3.5,29%,-1
COc1cccc(NC(=O)CN(C)CC(=O)NC(C)c2ccccc2)c1 (configuration not stated),14%,12%,-2,6%,2.6,-0.1%,25
Cn1nc(C(=O)Nc2ccc(S(=O)(=O)N3CCCCC3)cc2)ccc1=O,-30%,-6%,-12,5%,3.4,0.5%,2
COCCn1c(SCC(=O)NC2CCCCC2)nnc1-c1ccco1,23%[15.4 µM],3%,-3,0%,0.3,-2.0%,5
CCc1ccc(NS(=O)(=O)c2cc3[nH]c(=O)c(=O)[nH]c3cc2C)cc1,-16%,2%,8,10%,3.3,-5.2%,9
CC(C)n1c(=O)[nH][nH]c1=S,13%[15.4 µM],4%,9,8.9µM*,1.3,nt,0
COc1ccccc1NC(CC(=O)c1ccccc1)C(=O)OCC(=O)c1ccc(Br)cc1 (configuration not stated),?,13%,-5,4%,-0.2,-0.6%,22
COc1cc(/C=c2/sc3nc(-c4ccccc4)c(-c4ccccc4)n3c2=O)cc(OC)c1OC,29%,11%,-1,17%,-0.3,-14%,-11
CSc1ccccc1NC(=O)CN1CCCCC1,11%[15.4 µM],-1%,-7,8%,7.2,nt,7
O=C(O)/C=C\C(=O)Nc1ccc(OCc2ccccc2)cc1,0%[15.4 µM],nt,2,18%,4.1,nt,0
CCc1ccc(S(=O)(=O)Nc2c(C)nn(C)c2C)cc1,1%,-16%,-13,19%,0.1,-0.1%,3
c1ccc(-c2nn[nH]n2)nc1,-15%,8%,4,56µM*,0.3,-1.6%,3
CC(Oc1cccc(Cl)c1)C(=O)Nc1ccc(N2CCOCC2)cc1N1CCOCC1 (configuration not stated),13%[15.4 µM],?,16,nt,nt,nt,20
COc1cc(/C=C/C(=O)NC2CCCCC2)cc(OC)c1OC,-6%[15.4 µM],12%,5,11%,-0.5,0.5%,7
O=C(CNC(=O)c1ccc(Br)cc1)NC1=NCCS1,-4%[15.4 µM],-9%,1,-2%,-4.7,-2.1%,-1
COc1ccccc1NC(=O)c1c([N+](=O)[O-])cnn1C,-35%[inhibitor],2%,8,18%,0.0,-1.3%,-6
CSc1nccc(Oc2cncc(Cl)c2)n1,8%[15.4 µM],-2%,8,13%,3.5,nt,23
Cc1nc(CN2CCC(c3ccccc3)CC2)cc(=O)[nH]1,10%[15.4 µM],-4%,23,19%,-1.9,nt,3
Cc1ccc(/C(O)=C/C(=O)C(=O)NNC(=O)C(O)(c2ccccc2)c2ccccc2)cc1,-8%,9%,30,2%,17,-1.5%,-9
CCN(CC(=O)NCc1ccc(F)cc1)CC(O)COCc1cccc(OC)c1 (configuration not stated),0%,2%,2,6%,-0.3,-2.0%,-5
CNc1c(NS(=O)(=O)c2ccc(Cl)s2)c(=O)oc2ccccc12,14%[15.4 µM],0%,1,0%,-2.6,-1.6%,52
Cn1c(=O)n(/N=C/c2ccccc2)c2ccccc21,-14%,10%,0,-9%,nt,-1.0%,9
COc1ccc(OCC(=O)N/N=C/c2ccc(N(C)C)cc2)cc1,-53%[inhibitor],-19%,4,-2%,1.0,nt,-3
COc1ccc(-c2c(-c3ccc(S(C)(=O)=O)cc3)sc3ccc(OC)cc23)cc1,?,-26%,nt,nt,nt,4.0%,4
O=C(NCC(=O)N(c1ccc(F)cc1)C(C(=O)NCC1CCCO1)c1ccccc1)c1ccco1 (configuration not stated),27%,-5%,4,21%,-2.5,0.2%,4
O=C(O)COCC(=O)N1CCc2c([nH]c3ccccc23)C1C(F)(F)F (configuration not stated),-12%,10%,15,7%,1.5,-1.3%,nt
Cc1cccc(NS(=O)(=O)c2cc(C(=O)N3CCCCCC3)ccc2C)c1,-9%[15.4 µM],-17%,20,-2%,2.1,-3.2%,32
O=CNc1c(Cl)cc2c(c1Cl)Cc1cc([N+](=O)[O-])ccc1-2,-4%[15.4 µM],-10%,nt,nt,nt,0.2%,-6
COc1ccc(N2CCN(Cc3nc4c(c(=O)[nH]c(=O)n4C)n3CC(C)=O)CC2)cc1,1%,0%,2,-8%,0.1,3.0%,45

# As entered above.
# `Nn1c(SCC(=O)Nc2ccc3c(c2)OCO3)nnc1C1CC1` | TRPV1 PAM: -13
# `O=CNc1c(Cl)cc2c(c1Cl)Cc1cc([N+](=O)[O-])ccc1-2` | TRPML1 blocker: -6

# Following part.
SMILES,gsp ag,gsp antagonist,TRPV1 PAM,Sfp PPTase inh,Menin MLL FP FL,ClpP mod,TRPML1 blocker
O=C(O)c1c(NC(=O)c2cccc3ccccc23)sc2c1CCC2,-3%,5%,8,1%,0.2,-0.2%,0
C[C@H](NC(N)=O)C(=O)OCC(=O)Nc1ccc(OC(F)F)cc1,-2%,5%,?,6%,-5.2,0.5%,-8
COc1ccc(CN(CCC(c2ccccc2)c2ccc(OC(C)C)cc2)C(=O)CCl)cc1OC (configuration not stated),-13%,-23%,-2,-11%,0.8,-1.9%,16
COc1cccc(CNC(=O)CN(c2ccc(C(C)C)cc2)S(=O)(=O)c2c(C)noc2C)c1,?,-5%,-1,1%,nt,-2.6%&1.2%,-18&-7
CCOc1ccccc1N(C)C(=O)c1cn(CC)c(=O)c2cc(OC)c(OC)cc12,-5%,-2%,23,13%,2.3,nt,-1
O=C(NCCCN1CCCC1=O)c1ccc2c(=O)n(-c3ccc(F)cc3)c(=S)[nH]c2c1,nt,nt,-4,-6%,-6.9,nt,nt
Cc1cccc(C)c1Nc1nnc(SCc2cc([N+](=O)[O-])cc3c2OCOC3)s1,4%,-2%,7,2%,4.2,1.7%,-8
COc1ccc(CNC(=O)C2CCC(CNc3nc(=S)[nH]c4ccccc34)CC2)cc1 (configuration not stated),nt,nt,11,7%,-1.2,nt,nt
C=CCOC(=O)C1=C[C@@H](C2CCCCC2)C[C@@H](OCc2ccc(CO)cc2)O1,nt,-6%,-21,7%,4.4,-0.1%,-6
Cc1nc2ccccc2n1CCOc1ccccc1,-4%[15.4 µM],3%,1,3%,1.0,-1.6%,6
Cc1ccc2c(CSc3nc4nc(C)cc(C)n4n3)cc(=O)oc2c1,5%,14%,1,7%,-1.0,1.6%,7
Cc1nn(CC(=O)c2ccc(Cl)cc2Cl)c(C)[n+]1N,-21%,-5%,3,10%,-2.4,-2.3%,-14
CCOC(=O)c1c(NC(=O)c2cc3n(n2)C(C(F)(F)F)CC(c2cccs2)N3)sc(C)c1C (configuration not stated),-30%,-2%,20,2%,3.1,-0.1%,-11
NS(=O)(=O)c1cc(C(=O)N=Nc2c(O)[nH]c3ccccc23)ccc1Cl,3%[15.4 µM],?,1,-3%,-5.6,nt,-6
NC(=O)C1CCN(C(=O)c2cc3n(n2)C(C(F)(F)F)CC(c2ccco2)N3)CC1 (configuration not stated),-67%[inhibitor],7%,15,-11%,-3.2,-1.0%,3
O=C(CN1CCN(Cc2ccccc2Cl)C1=O)NC1CCCCCCC1,-7%,-3%,-1,-12%,2.3,2.2%,-13
CCOc1ccc(N(CC(=O)NCc2cccs2)S(=O)(=O)c2c(C)noc2C)cc1,-11%,-12%,-13,3%,-1.8,-1.4%,15

# High-throughput results: PubChem, National Center for Advancing Translational Sciences (NCATS)
